rRNA inh HTS = inhibits bacterial ribosomal RNA function over humanized ribosomes | E. coli WT GFP vs humanized-ribosome RFP mutants, fluorescence, 24 h; stronger effect = lower value; DMSO median 0, no signal -100 | GFP signal change (wild-type ribosome), % (concentration not given with the values) | 350,000 tested, 1.6% active | AID 720706;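 active = significant combined selectivity score with lowered wild-type GFP, culture density cut under 30%, mutant RFP and density less affected; inactive = any of these conditions unmet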; also: one replicate is shown; some compounds called inactive have numbers as strong as hits
Calb FLC = affects C. albicans growth with fluconazole. 300,000 tested, 0.57% active. C. albicans CaCi-2 (fluconazole-resistant clinical isolate) + fluconazole, Alamar Blue growth, 48 h. growth inhibition, % (concentration not given with the values). AID 1979;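 active = most replicates above 75%; inconclusive = exactly half above 75%; inactive = most below 75%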;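 also: all wells also contain fluconazole at 8 µg/ml as a sub-toxic cotreatment; 0% = median of DMSO wells and 100% = median of geldanamycin control wells; wells of about 8 µL received 7.5 nL stock; the first replicate is given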
ALR inh = human ALR oxidase inhibition via reduced H2O2; P55789; inhibition, % (test concentration not listed); 290,000 tested, 3.8% active; purified ALR, DTT oxidation, H2O2 HRP-luminol luminescence; AID 485317;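 active = mean and each replicate at 75% or more; inconclusive = only one of the two met; inactive = neither met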;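 also: stock transfer was 7.5 nL into about 7.5 µL; 0% = neutral wells and 100% = wells with inactivated enzyme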
Target sequence (P55789 whole entry, looked up): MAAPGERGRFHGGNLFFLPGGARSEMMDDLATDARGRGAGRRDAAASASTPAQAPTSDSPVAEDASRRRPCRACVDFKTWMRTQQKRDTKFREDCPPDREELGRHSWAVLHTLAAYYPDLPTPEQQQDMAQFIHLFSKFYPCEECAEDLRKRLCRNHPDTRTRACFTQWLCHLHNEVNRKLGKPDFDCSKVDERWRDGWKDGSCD
T cruzi repl = T. cruzi replication inhibition | 300,000 tested, 1.4% active | inhibition, % (no concentration beside the values) | AID 1885 | T. cruzi beta-gal in NIH3T3, luminescence, 90 h;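 active = mean inhibition across valid replicates above about 55%, limit read from the data; inconclusive = mean below that limit but half or more replicates reach it; inactive = mean below it, under half of replicates reach it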;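 also: signal also drops with host cell toxicity which is not excluded here; 0% = plate median of DMSO wells and 100% = zero luminescence signal; higher percent means less beta-gal luminescence so fewer parasites; stock transfer was 50 nL into about 50 µL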
RanGTP-Imp inh = inhibitors of RanGTP-importin-beta interaction, primary screen, biochemical, FRET, CFP-Ran, YFP-importin-beta, homogeneous; inhibition, % (test concentration not listed); 300,000 tested, 1.1% active; cell-free CFP-Ran/YFP-importin-beta FRET ratio;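 active = most replicates above 15%; inconclusive = exactly half above 15%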;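 also: 0% = DMSO wells and 100% = Ran loaded with GDP instead of GTP; wells of about 40 µL received 100 nL stock; the first replicate is given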
Beta apoptosis = blocks beta cell apoptosis. 300,000 tested, 0.8% active. INS-1E cytokine-induced death, ATP luminescence, 48 h; percent of positive-control rescue, neutral wells zero. protection from apoptosis, % (no concentration beside the values);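 active = all replicates at 75% or more, or half of them and the mean; inconclusive = half reach 75% but not the mean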;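 also: 0% = cytokine-treated negative control wells and 100% = positive control rescue; higher means more ATP so stronger rescue from cytokine killing; wells of about 40 µL received 100 nL stock; the first replicate is given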
FGF22 binding = binders of recombinant human FGF22 by thermal shift. SYPRO orange fluorescence; percent of sucrose octasulfate shift, DMSO zero. Q9HCT0. AID 651658. calls only at 9.99 µM. 340,000 tested, 1.5% active;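 active = melting point raised past a set limit in the mean and every replicate; inconclusive = no clear call; three in four hits are not shown here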
Target sequence (Q9HCT0 whole entry, looked up): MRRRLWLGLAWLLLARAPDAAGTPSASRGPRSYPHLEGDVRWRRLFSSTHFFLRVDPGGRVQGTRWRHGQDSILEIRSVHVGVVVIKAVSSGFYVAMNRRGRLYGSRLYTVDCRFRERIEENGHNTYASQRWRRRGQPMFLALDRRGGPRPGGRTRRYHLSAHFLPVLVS
MLL AF4-AF9 inh = MLL-AF4/AF9 protein interaction inhibition; P42568; AlphaScreen, biotin-AF4 peptide binding to FLAG-AF9; inhibition, % at 10 µM; 350,000 tested, 0.47% active;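 active = every replicate reaching a set inhibition limit, whatever the replicate mean, cut at about 25% in these data; inconclusive = mean inhibition reaches that limit but some replicates miss it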;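 also: 0% = plate neutral control median and 100% = total signal loss; the record names both 10 and 1 µM as test concentration; the first replicate is given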
Target sequence (P42568 whole entry, looked up): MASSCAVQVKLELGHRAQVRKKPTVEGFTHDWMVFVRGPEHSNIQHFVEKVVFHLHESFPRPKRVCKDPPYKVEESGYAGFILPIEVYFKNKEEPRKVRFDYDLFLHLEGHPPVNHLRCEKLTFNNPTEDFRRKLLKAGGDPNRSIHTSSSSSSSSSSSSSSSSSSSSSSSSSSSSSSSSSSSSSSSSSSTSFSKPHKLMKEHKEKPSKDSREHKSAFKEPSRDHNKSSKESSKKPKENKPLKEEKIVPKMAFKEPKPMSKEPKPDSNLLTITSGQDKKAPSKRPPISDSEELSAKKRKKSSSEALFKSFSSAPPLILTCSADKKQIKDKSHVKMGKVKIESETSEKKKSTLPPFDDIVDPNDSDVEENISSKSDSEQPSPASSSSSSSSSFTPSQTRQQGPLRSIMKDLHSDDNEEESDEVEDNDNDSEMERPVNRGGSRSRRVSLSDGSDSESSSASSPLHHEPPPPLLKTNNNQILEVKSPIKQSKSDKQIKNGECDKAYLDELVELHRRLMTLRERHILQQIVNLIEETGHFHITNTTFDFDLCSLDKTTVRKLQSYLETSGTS
rRNA inh HTS OD600 = recorded beside rRNA inh HTS, whose call it bears; OD600 change, %; measured here: OD600 growth;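 optical density of the mix in the first replicate; 0 = DMSO median and -100 = no signal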
rRNA inh HTS RFP = also measured in rRNA inh HTS; calls as there; RFP signal change, %; measured here: RFP humanized mutant strains;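 first replicate; 0 = DMSO median and -100 = no signal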
* hit, by the source's call; i = inactive; u = inconclusive; x = not tested or not shown; & = joins results of further samples.

SMILES	rRNA inh HTS	rRNA inh HTS OD600	rRNA inh HTS RFP	Calb FLC	ALR inh	T cruzi repl	RanGTP-Imp inh	Beta apoptosis	FGF22 binding	MLL AF4-AF9 inh
c1ccc(CNc2nc3ccccc3[nH]2)cc1	5.3	-4.9	0.1	-10.6	18.3	19.4	-1.8	x	i	6.3
O=C(C1CCN(S(=O)(=O)c2cccc3nsnc23)CC1)N1CCn2c1nc1ccccc12	x	x	x	-2.9	-11.0	40.5	-6.2	-3.2	x	x
CC(=O)N1CCc2cc(S(=O)(=O)CCC(=O)NCCc3ccccc3)ccc21	4.7	1.6	-1.6	-12.0	-9.3	3.2	3.6	-0.4	i	-1.8
O=C(NCCC1=CCCCC1)C(c1ccccc1)c1ccccc1	x	x	x	6.4	4.9	9.0	-1.6	0.7	x	x
CCC(C)(C)NC(=O)CN(C(=O)c1snc(C(N)=O)c1N)c1ccc2nc(C)sc2c1	-12.6	-12.1	-0.4	u	-1.4	-9.5	1.4	2.3	i	3.0
COc1ccccc1CN1C(=O)[C@@H]2Cc3c([nH]c4ccccc34)C(C)(C)N2C1=O	-8.0	-9.8	-3.3	-5.8	-4.1	18.4	2.1	-6.2	i	1.3
CCOC(=O)c1c(NC(=O)/C=C/C(=O)O)sc(C)c1-c1ccc(Cl)cc1	-55.4	-72.8	-19.6	23.0	14.9	22.7	4.7	7.5	x	-10.1
Cc1ccccc1-c1nnc(SCC(=O)NC2CCS(=O)(=O)C2)n1C (stereo not drawn)	1.8	-9.2	-7.3	x	-4.5	x	x	-1.9	i	-0.5
CC1CCN(c2ccc3nnc(CCC(=O)Nc4cccc(F)c4)n3n2)CC1	-30.5*	-20.7*	1.2*	9.5	-4.7	-11.6	0.8	3.3	i	1.9
CCOC(=O)COc1ccc(S(=O)(=O)NCc2cccnc2)cc1	8.1	7.2	3.1	5.3	-13.1	-7.9	-2.9	2.0	i	-50.7
COc1ccccc1C1=NOC(COc2ccc3c(C)cc(=O)oc3c2)C1 (stereo not drawn)	x	x	x	-3.6	-4.3	-7.7	0.3	19.8	i	-0.1
COc1ccc(Br)cc1/C=N/n1nnnc1N	1.5	4.7	4.3	0.0	x	-7.3	2.1	-3.8	i	0.0
O=C(CSc1nnc(C2COc3ccccc3O2)o1)N1CCCc2ccccc21 (stereo not drawn)	x	x	x	4.3	-32.4	5.4	1.3	-3.4	x	x
O=C(O)Cn1c(=O)c2c3c(sc2n(Cc2ccccc2)c1=O)CCCC3	-7.0	-6.5	-0.3	-6.3	8.3	-6.5	-3.8	-4.0	i	-3.7
O=C(COC(=O)C1CCN(S(=O)(=O)c2cccs2)CC1)Nc1ccccc1Br	-15.2	-18.3	-2.4	3.7	-16.2	5.7	0.9	0.1	i	-0.1
O=C(COc1ccccc1)N1CCN=C1c1ccccc1	x	x	x	-6.4	x	1.1	5.0	-3.9	x	x
Nc1ccc(Nc2ccccc2)c(Cl)c1	-12.2	20.2	-7.2	2.2	99.6*	18.3	-0.3	3.7	i	11.3
CCOC(=O)COc1ccccc1/C=C1\NC(=O)NC1=O	1.4	0.4	1.4	0.2	-13.3	-10.5	1.5	x	i	0.2
CCOC(=O)N/N=C\C=C\c1ccc2c(c1)OCO2	13.8	11.1	1.9	33.3	28.9	-3.9	-3.7	-1.1	i	0.0
O=S(=O)(c1ccc(F)cc1)N1CCN=C1SCc1cccc(F)c1	-45.0	-50.9	-8.2	0.8	-6.2	15.6	-3.5	3.2	i	-4.8
CC(NC(=O)c1cc(-c2cccnc2)nc2ccc(Br)cc12)C1CCCO1 (stereo not drawn)	22.4	14.7	3.9	-0.3	-8.7	-0.8	-0.1	-8.1	i	-0.4
COc1ccc(N2CCN(C(=O)COC(=O)CCc3ccccc3OC)CC2)cc1	-4.9	-11.6	3.2	-1.8	2.7	-5.7	-1.7	0.0	i	2.9
O=C(NCc1cccs1)C1CCCN1C(=O)NC1CCCCC1 (stereo not drawn)	x	x	x	u	-1.2	-3.7	-1.7	-4.7	x	x
CCOC(=O)c1c(S(=O)(=O)NCc2ccc(OC)cc2)c(C)n(C)c1C	1.8	5.8	0.4	0.0	0.6	7.5	0.2	x	i	3.7
COc1ccc(N2CCN(C(=O)CN3C(=O)NC(c4ccc(OC)cc4)(c4ccc(OC)cc4)C3=O)CC2)cc1	0.3	2.8	1.3	1.4	8.2	1.0	4.4	4.8	i	1.2
COCc1cc(=O)n2[nH]c(-c3ccccc3)cc2n1	x	x	x	-15.3	0.3	-4.2	-3.5	2.7	x	x
O=c1[nH]cc(C(F)(F)F)cc1NS(=O)(=O)c1ccccc1[N+](=O)[O-]	-11.4	-15.4	-1.8	16.3	-7.5	-4.1	-0.3	-3.3	i	1.5
O=C(Nc1ccccc1NC(=O)c1ccco1)c1ccco1	x	x	x	-0.8	-10.0	-22.0	-4.2	-6.6	x	x
CN(Cc1cccc(Cl)c1)C(=O)C1CSC2(C)CCC(=O)N12 (stereo not drawn)	14.2	11.3	1.1	-4.5	-8.9	-22.1	0.2	-8.1	i	5.7
N#C/C(=C\C=C\c1ccccc1)C(=O)N1CCCC1	-6.7	9.1	-1.1	-3.4	-0.6	-6.3	-0.4	-5.1	i	-0.5
COc1ccc(C(=O)CCC(=O)NCCc2c[nH]c3ccccc23)cc1OC	2.8	2.0	0.0	4.2	-17.1	5.6	0.4	-0.3	i	-0.7
CCOc1cc2[nH]c(=S)n(CCCN(CC)CC)c(=O)c2cc1OCC	x	x	x	-18.5	u	0.3	-0.8	-6.0	x	x
Cc1ccc(S(=O)(=O)N(C)C[C@@H]2Oc3ccc(NC(=O)Nc4cccc5ccccc45)cc3C(=O)N([C@H](C)CO)C[C@H]2C)cc1	0.8&7.7	0.5&4.6	-0.2&-0.9	x	-3.0	x	x	8.1	i	-9.5
COc1cccc(-n2c(SCC(=O)N3CCOCC3)nc3c([nH]c4ccccc43)c2=O)c1	x	x	x	6.2	-5.2	20.2	0.9	-3.4	x	x
COC(=O)C(Cc1ccc(O)cc1)NC(=O)CCOc1ccc(OC)cc1 (stereo not drawn)	2.0	-1.2	-2.5	-3.9	35.8	-9.9	8.2	0.0	i	-3.3
CCN(/N=C/c1ccc(N(C)C)cc1)c1nc2ccccc2[nH]1	-22.8*	-10.9*	-2.9*	-44.3	x	-9.6	-1.2	x	i	17.0
CCOC(=O)c1ccccc1NC(=O)COC(=O)CCNS(=O)(=O)c1ccccc1	0.3	-1.4	-0.8	7.9	-10.5	-11.2	u	-5.8	i	-1.0
COc1cccc(/C=N/n2c(-c3cc(C)[nH]n3)n[nH]c2=S)c1O	7.4	11.7	1.4	24.4	97.7*	-16.2	6.4	-8.8	i	x
NS(=O)(=O)c1ccc(CCNC(=O)c2cc(-c3cc(Cl)ccc3O)n[nH]2)cc1	-49.0	-52.0	-12.8	13.0	8.4	-20.6	4.0	-14.2	i	3.5
O=C(O)C1CCCCN1S(=O)(=O)c1cccc2nsnc12 (stereo not drawn)	x	x	x	-18.0	x	3.6	4.1	-14.0	x	x

An excerpt from above in order of formula weight, largest number first.
SMILES	rRNA inh HTS	rRNA inh HTS OD600	rRNA inh HTS RFP	Calb FLC	ALR inh	T cruzi repl	RanGTP-Imp inh	Beta apoptosis	FGF22 binding	MLL AF4-AF9 inh
Cc1ccc(S(=O)(=O)N(C)C[C@@H]2Oc3ccc(NC(=O)Nc4cccc5ccccc45)cc3C(=O)N([C@H](C)CO)C[C@H]2C)cc1	0.8&7.7	0.5&4.6	-0.2&-0.9	x	-3.0	x	x	8.1	i	-9.5
CCOC(=O)c1ccccc1NC(=O)COC(=O)CCNS(=O)(=O)c1ccccc1	0.3	-1.4	-0.8	7.9	-10.5	-11.2	u	-5.8	i	-1.0
CCOc1cc2[nH]c(=S)n(CCCN(CC)CC)c(=O)c2cc1OCC	x	x	x	-18.5	u	0.3	-0.8	-6.0	x	x
O=c1[nH]cc(C(F)(F)F)cc1NS(=O)(=O)c1ccccc1[N+](=O)[O-]	-11.4	-15.4	-1.8	16.3	-7.5	-4.1	-0.3	-3.3	i	1.5
O=C(O)C1CCCCN1S(=O)(=O)c1cccc2nsnc12 (stereo not drawn)	x	x	x	-18.0	x	3.6	4.1	-14.0	x	x
O=C(Nc1ccccc1NC(=O)c1ccco1)c1ccco1	x	x	x	-0.8	-10.0	-22.0	-4.2	-6.6	x	x

The results go on:
SMILES	rRNA inh HTS	rRNA inh HTS OD600	rRNA inh HTS RFP	Calb FLC	ALR inh	T cruzi repl	RanGTP-Imp inh	Beta apoptosis	FGF22 binding	MLL AF4-AF9 inh
CC(C)Cn1c(SCC(=O)Nc2cccnc2Cl)nnc1-c1ccco1	-2.5	-1.7	2.3	x	-0.3	x	x	-2.3	i	-2.0
Cc1ccc2nc(Cl)c(/C=N/n3c(C)nnc3C)cc2c1	0.4	-2.8	-0.9	1.5	5.4	-9.7	-2.6	2.0	i	0.8
Cn1c(/C=N/O)nc2ccccc21	5.7	3.3	0.7	-5.7	-1.4	-3.1	-1.9	-4.5	i	-11.6
O=C(CCl)N1c2ccccc2SCC1c1ccccc1 (stereo not drawn)	-2.1	1.0	0.0	81.8*	5.6	u	-0.7	-10.5	i	2.0
CCCc1[nH]nc2c1C(c1ccc(OC)c(Cn3nnc4ccccc43)c1)C(C#N)=C(N)O2 (stereo not drawn)	x	x	x	-3.4	5.8	-13.0	-2.6	-3.4	x	x
CCOc1ccc2[nH]c(C)c(CN3CCCCCC3)c(=O)c2c1	-4.1	1.1	-1.9	9.0	0.2	0.3	2.5	0.9	i	7.8
C[C@H](NC(=O)COc1ccc(Cl)cc1)C(=O)N1CCC2(CC1)NCCc1[nH]cnc12	18.8	28.8	5.7	-1.2	-2.0	-5.4	0.9	-1.8	i	0.3
CCCN(Cc1nc(-c2ccc(Cl)cc2)no1)CC1CCCO1 (stereo not drawn)	-7.3	-5.9	-5.4	8.0	-6.7	10.2	-1.4	-3.4	i	-5.3

Compounds from the list above that have a furan ring, fused or not (2):
SMILES	rRNA inh HTS	rRNA inh HTS OD600	rRNA inh HTS RFP	Calb FLC	ALR inh	T cruzi repl	RanGTP-Imp inh	Beta apoptosis	FGF22 binding	MLL AF4-AF9 inh
O=C(Nc1ccccc1NC(=O)c1ccco1)c1ccco1	x	x	x	-0.8	-10.0	-22.0	-4.2	-6.6	x	x
CC(C)Cn1c(SCC(=O)Nc2cccnc2Cl)nnc1-c1ccco1	-2.5	-1.7	2.3	x	-0.3	x	x	-2.3	i	-2.0

The list is partial; rates above refer to the full screens.
